KCNQ2 block – KCNQ2 potassium channel inhibitors, primary screen, cell-based, CHO-K1, FluxOR thallium flux, B-score (AID 2156). Potassium voltage-gated channel subfamily KQT member 2 (Rattus norvegicus), O88943. 20 min; hits give low values; only compounds with negative scores are shown here; some inactives read as strong as hits. B-score at 10 µM. 310,000 compounds, 1.1% hits;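 active = fluorescence ratio B-score at most minus 3 library SDs, with starting brightness B-score within 2 library SDs, cut at about -5.5 in these data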
Target sequence (O88943 whole entry, looked up): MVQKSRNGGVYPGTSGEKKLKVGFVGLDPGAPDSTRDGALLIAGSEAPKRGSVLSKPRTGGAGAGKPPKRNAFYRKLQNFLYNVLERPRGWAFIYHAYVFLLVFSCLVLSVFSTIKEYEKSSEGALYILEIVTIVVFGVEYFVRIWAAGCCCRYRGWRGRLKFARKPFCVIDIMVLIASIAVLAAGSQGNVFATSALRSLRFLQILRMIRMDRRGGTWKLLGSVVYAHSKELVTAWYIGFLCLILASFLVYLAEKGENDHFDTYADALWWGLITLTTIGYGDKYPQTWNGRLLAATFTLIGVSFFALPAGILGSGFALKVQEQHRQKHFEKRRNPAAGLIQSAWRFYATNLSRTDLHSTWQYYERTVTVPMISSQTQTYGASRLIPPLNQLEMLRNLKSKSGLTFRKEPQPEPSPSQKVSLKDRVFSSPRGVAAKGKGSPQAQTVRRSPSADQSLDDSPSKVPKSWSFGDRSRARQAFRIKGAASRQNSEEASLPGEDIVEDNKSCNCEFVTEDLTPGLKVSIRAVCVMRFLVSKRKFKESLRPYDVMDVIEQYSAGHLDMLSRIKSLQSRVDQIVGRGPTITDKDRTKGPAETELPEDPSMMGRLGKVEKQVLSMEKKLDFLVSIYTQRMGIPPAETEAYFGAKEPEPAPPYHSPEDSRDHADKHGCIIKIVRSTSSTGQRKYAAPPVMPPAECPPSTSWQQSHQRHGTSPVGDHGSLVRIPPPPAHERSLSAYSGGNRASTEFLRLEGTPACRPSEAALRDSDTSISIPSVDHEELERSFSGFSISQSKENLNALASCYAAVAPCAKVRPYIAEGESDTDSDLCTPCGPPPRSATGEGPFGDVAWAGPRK
KCNQ2 block baseline – recorded beside KCNQ2 block, whose call it bears; B-score; measured here: initial fluorescence intensity artifact check;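 brightness before thallium and not channel activity; 0 = typical well and far values either way flag optical interference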
The depositor's hits bear a star; i = inactive. An excerpt (hit frequency here may not be typical).

1	O=C1N(c2ccccc2)c2ccccc2C1(Cc1ccncc1)Cc1ccncc1
2	Cc1cc2c(s1)Nc1ccccc1N=C2N1CCN(C)CC1
3	N=C(N=C(N)N)N1CCOCC1
4	CC(=O)O[C@]1(C(C)=O)CC[C@H]2[C@@H]3C=C(Cl)C4=CC(=O)[C@@H]5C[C@@H]5[C@]4(C)[C@H]3CC[C@@]21C
5	Cc1coc2c1C(=O)C(=O)c1c-2ccc2c1CCCC2(C)C
6	CC1=NN(c2ccccc2)C(=O)C1
7	CCOc1ccc(S(=O)(=O)N2CCCCCC2)c2ccccc12
8	CC(C)Cn1cnc2c1c(=O)n(C)c(=O)n2C
entry no. | 1 | 2 | 3 | 4 | 5 | 6 | 7 | 8
KCNQ2 block | -5.6* | i | i | i | i | i | i | i
KCNQ2 block baseline | -0.45* | -0.83 | 0.39 | 0.24 | -1.1 | 0.87 | 0.04 | -0.25

9	c1ccc2c(CC3=NCCN3)cccc2c1
10	C[C@H]1COc2c(N3CCN(C)CC3)c(F)cc3c(=O)c(C(=O)O)cn1c23
11	C[C@]12CC[C@H]3[C@@H](CCC4=CC(=O)CC[C@@]43C)[C@@H]1CC[C@@H]2C(=O)CO
12	CC(Oc1c(Cl)cccc1Cl)C1=NCCN1 (configuration not stated)
13	Nc1cc(-c2ccncc2)c[nH]c1=O
14	CC(C)Cc1ccc([C@H](C)C(=O)O)cc1
15	O=C1NCC2(CCN(CCc3ccccc3)CC2)O1
16	COc1cc2nc(N3CCN(C(=O)C4COc5ccccc5O4)CC3)nc(N)c2cc1OC (configuration not stated)
17	CCCOc1ccccc1-c1nc2n[nH]nc2c(=O)[nH]1
18	CC1(C)O[C@H]2CC(=O)OCC23[C@H]2CC[C@@]4(C)[C@H](c5ccoc5)OC(=O)[C@H]5O[C@]54[C@]2(C)C(=O)C[C@@H]13 (some centres not stated)
19	Cc1nnc(NS(=O)(=O)c2ccc(N)cc2)s1
entry no. | 9 | 10 | 11 | 12 | 13 | 14 | 15 | 16 | 17 | 18 | 19
KCNQ2 block | i | i | i | i | i | i | i | i | i | i | i
KCNQ2 block baseline | 0.91 | -0.8 | -0.04 | 0.74 | 1.5 | 0.55 | -0.01 | -1.7 | 2.2 | -0.49 | 0.68

Screening data as filed in PubChem.
